# Bioassay records (PubChem)
# Mtb MbtI inh = blocks the Mycobacterium tuberculosis siderophore enzyme MbtI; P9WFX0; purified MbtI enzyme, fluorescence intensity read-out; inhibition, %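 (about 17 µg/mL by stock and volumes)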; hit rate 0.89% among 100,000; AID 493033;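 active = above 50% in both replicates, above 80% if mildly self-fluorescent; inactive = the rest, strongly fluorescent compounds included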;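 note: 0% = mean of negative and 100% = mean of positive controls; one replicate is shown; some compounds called inactive have numbers as strong as hits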
# Target sequence (P9WFX0 whole entry, looked up): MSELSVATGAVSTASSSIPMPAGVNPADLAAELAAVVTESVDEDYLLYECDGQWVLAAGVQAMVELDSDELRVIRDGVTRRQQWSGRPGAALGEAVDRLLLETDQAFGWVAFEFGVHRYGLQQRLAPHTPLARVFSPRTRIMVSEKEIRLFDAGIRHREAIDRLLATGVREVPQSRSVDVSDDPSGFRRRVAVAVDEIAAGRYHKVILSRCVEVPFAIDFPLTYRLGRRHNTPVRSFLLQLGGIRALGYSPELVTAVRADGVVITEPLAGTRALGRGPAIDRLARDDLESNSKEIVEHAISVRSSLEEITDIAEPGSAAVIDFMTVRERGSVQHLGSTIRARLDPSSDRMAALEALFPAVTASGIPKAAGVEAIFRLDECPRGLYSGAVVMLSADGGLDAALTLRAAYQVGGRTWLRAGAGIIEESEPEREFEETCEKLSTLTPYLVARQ
# Polio RdRp inh = inhibitors of poliovirus RNA polymerase binding and polymerization; P03300; poliovirus polymerase elongation, fluorescence polarization; active compounds read low; % elongation, % (compound at 16.7 µg/mL); hit rate 0.66% among 150,000; AID 588519; in the data active = % elongation below about 90%; note: some results filed as inactive read as strong as hits
# Mtb MenB inh = Mtb MenB enzyme inhibition; P9WNP5; MenB enzyme assay, absorbance read-out; some hits fall short of the stated cut; inhibition, %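 (about 12 µg/mL by stock and volumes)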; hit rate 0.43% among 100,000; AID 540299;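 active = mean of two replicates above 30%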;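 note: 0% = no compound and 100% = wells with inactive enzyme; the first replicate is given; strong numbers were not always called active; inactives centre near -10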
# Target sequence (P9WNP5 whole entry, looked up): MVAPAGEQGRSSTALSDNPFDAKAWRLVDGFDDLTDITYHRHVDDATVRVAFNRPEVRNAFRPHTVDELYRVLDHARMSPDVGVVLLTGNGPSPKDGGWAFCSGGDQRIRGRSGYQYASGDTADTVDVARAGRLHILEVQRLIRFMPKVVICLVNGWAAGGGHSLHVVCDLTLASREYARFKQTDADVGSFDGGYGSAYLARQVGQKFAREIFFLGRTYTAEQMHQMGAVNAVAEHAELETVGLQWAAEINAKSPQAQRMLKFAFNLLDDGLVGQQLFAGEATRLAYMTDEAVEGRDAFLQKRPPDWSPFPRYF
# Polio RdRp inh intensity = recorded beside Polio RdRp inh, whose call it bears; % elongation; measured here: total intensity read-out; formula for this scale not given here;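 total fluorescence in place of polarization; lower means less elongation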
# * = called active by the depositor; i = inactive; . = not tested or not shown.
nr	smiles	Mtb MbtI inh	Polio RdRp inh	Polio RdRp inh intensity	Mtb MenB inh
1	O=C1C=CC(=NS(=O)(=O)c2ccc(F)cc2)C=C1	98*	100	100	21
2	Cc1ccc(S(=O)(=O)N2Cc3ccccc3CC2C(=O)N(C)C)cc1 (configuration not stated)	-14	100	102	-20
3	NC(=O)NC12CC3CC(CC(C3)C1)C2	-5	104	109	-15
4	COc1ccc(C(CNC(=O)NC(C)(C)C)N2CCN(C)CC2)cc1 (configuration not stated)	4	105	96	-17
5	CCN(C(=O)CSc1nc(N)nc(N)n1)C1=CCCC1	-4	101	106	8
6	C/C(=N\NC(=Nc1ccccc1)c1ccccn1)c1ccccn1	65*	99	101	-79
7	Cc1cccc(N2CCCn3c2nc2c3c(=O)n(C)c(=O)n2C)c1	-11	102	105	1
8	CCc1ccc2oc(=O)cc(CN(CC)CCO)c2c1	8	105	109	-13
9	COc1ccc(C2NC(=S)NC(C)=C2C(=O)Nc2ccccn2)cc1OC (configuration not stated)	1	101	101	-25
10	COc1ccc(OC)c(C2C(C#N)=C(N)N(c3cc(-c4ccccc4)[nH]n3)C3=C2C(=O)CCC3)c1 (configuration not stated)	12	101	101	-1
11	CNC(=O)COC(=O)c1cc(F)c(F)cc1Cl	11	106	109	-14
12	COCCN(C(=S)Nc1c(C)cccc1C)C(C)c1cccnc1 (configuration not stated)	0	99	97	-12
13	O=C(NC1CCCCC1)c1ccc(Cn2c(=S)[nH]c3ccccc3c2=O)cc1	-14	101	102	-8
14	CCN(CC)c1ccc(CN2CC=C(c3ccc(F)cc3)CC2)cc1	4	101	102	-17
15	Cc1cccc(C=Nc2ccc(-c3nc4ccccc4o3)cc2)c1O	i	100	103	-41
16	Cc1cc(N)n(-c2ncnc3scc(-c4ccc(C(C)C)cc4)c23)n1	15	97	93	-14
17	O=c1c2ccccc2nnn1CSc1ccc2c(c1)OCCO2	8	101	101	-16
18	COC(=O)c1ccccc1SC(=O)c1ccc(Cl)c(Cl)c1	-7	96	95	-12
19	C[N+]1(C2CCC3CCC2C3O)CCCCC1 (configuration not stated)	7	101	107	-16
20	COc1ccc(C(CCN)c2ccccc2)cc1 (configuration not stated)	-3	99	102	-11
21	Cc1ccc(C(=O)C2C(=O)N(c3ccccc3)C(=O)N(c3ccccc3)C2=O)cc1	0	101	106	-16
22	CSc1ccc(Cl)c(C(=O)OCC(=O)C(C)(C)C)c1	11	102	97	.
23	CCOC(=O)C1=C(CC)Nc2ccccc2N=C1NC(=O)C1CC(=O)N(c2ccc3c(c2)OCCO3)C1 (configuration not stated)	15	101	97	1
24	COC(=O)c1c(C)[nH]c(C(=O)N2CCN(c3ccccc3)CC2)c1C	8	104	101	-2
25	Cc1[nH]c2ccc(Cl)cc2c(=O)c1CN1CCN(C)CC1	-1	101	104	-7
26	CC(C)(C)n1ncc(C(=O)O)c1C1CCNCC1	1	99	103	-9
27	Cc1cc2c([nH]c(=O)c3c(=O)[nH]c(C(F)(F)F)nc32)s1	75	103	122	3
28	Cc1ccc(-c2cn3nc(N4CCC(C(=O)NCCCN5CCCCC5)CC4)sc3n2)cc1	-3	102	100	-17
29	NC(=O)C1CCCN(C(=O)Cc2n[nH]c(=O)c3ccccc23)C1 (configuration not stated)	1	100	105	-4
30	Cc1csc(SCc2cccc(S(=O)(=O)N(C)C)c2)n1	-1	102	105	-2
31	CCn1c(=O)c2sccc2n2c(CCCC(=O)N3CCC(C(N)=O)CC3)nnc12	-3	103	103	3
32	C=C(C)CN(CC)C1CCC(CC)CC1 (configuration not stated)	-6	98	101	13
33	COC(=O)C1C(=O)C2=C(CC1C)NC(C)=C(C(=O)OC1CCCCC1)C2c1ccc(N(C)C)cc1 (configuration not stated)	2	100	102	-18
34	CC1(C)CC(=O)c2c(Cc3ccccc3)n[nH]c2C1	-17	101	105	.
35	CC(C)CC1CC(C)(C(=O)CSc2n[nH]c(-c3ccccc3)n2)OC1=O (configuration not stated)	-3	100	108	0
36	CSc1nc2c(Cl)cccc2c2c1c(=O)n(Cc1ccc(Cl)cc1)n2C	-9	100	97	6
37	CC(C)Nc1nc(NC(C)C)nc(C(=O)OCCO)n1	2	101	101	11
38	COC(=O)CNC(=O)c1cc2sccc2n1Cc1ccccc1	-3	105	101	-26
39	O=C(CC(C(=O)O)n1cccn1)c1ccc(Br)cc1 (configuration not stated)	-1	99	101	2
40	CCOc1ccc(NC(=O)CCc2c(C)nc3c(c(C)nn3C(C)(C)C)c2C)cc1	-2	100	106	-17
41	On1nnc2ccccc21	43	102	103	1
42	Cc1ccc(CNC(=O)CSc2nc3ccccc3o2)cc1	-6	101	107	.
43	CCOC(=O)C1CCCN(C(=O)CN2C(=O)c3ccccc3S2(=O)=O)C1 (configuration not stated)	-7	102	96	-10
44	CC1Cc2ccccc2N1C(=O)CSc1nnc(N)s1 (configuration not stated)	-4	99	101	5
45	NC(=O)c1ccc(NC(=O)c2ccccc2OC(F)F)cc1	7	98	100	14
46	NC(=S)Cc1c[nH]c2ccccc12	72	100	102	-52
47	CCN(CC(=O)NC1CCS(=O)(=O)C1)CC(=O)c1c(N)n(Cc2ccccc2)c(=O)n(C)c1=O (configuration not stated)	-9	99	107	-15
48	COc1ccccc1C(=O)CN1CCCCC1C (configuration not stated)	-2	107	111	-21
49	CCNc1nc(C)nc2sc3c(c12)CCCC3	-1	98	94	.
50	CC(C)CC(C(=O)Nc1cc(C(F)(F)F)ccc1N1CCOCC1)N1C(=O)C2CC=CCC2C1=O (configuration not stated)	5	99	94	8

# Looked up above:
# CCN(CC)c1ccc(CN2CC=C(c3ccc(F)cc3)CC2)cc1 @ Polio RdRp inh = 101
# NC(=O)C1CCCN(C(=O)Cc2n[nH]c(=O)c3ccccc23)C1 (configuration not stated) @ Polio RdRp inh = 100
# COC(=O)c1c(C)[nH]c(C(=O)N2CCN(c3ccccc3)CC2)c1C @ Mtb MbtI inh = 8
# CSc1nc2c(Cl)cccc2c2c1c(=O)n(Cc1ccc(Cl)cc1)n2C @ Mtb MbtI inh = -9

# (further entries)
nr	smiles	Mtb MbtI inh	Polio RdRp inh	Polio RdRp inh intensity	Mtb MenB inh
51	COc1ccc(OCc2nc(C#N)c(N3CCOCC3)o2)cc1	4	103	99	-11
52	N#CCn1c(C[S+]=C=N)nc2ccccc2c1=O	84*	100	84	-40
53	Fc1c(F)c(F)c(C=Nc2ccccc2N2CCOCC2)c(F)c1F	-3	105	98	.
54	COC(=O)c1cc(S(=O)(=O)NCc2ccc(OC)cc2)cn1C	-14	102	103	-2
55	FC(F)(F)c1nc(NCc2ccccc2)nc2c1CCCCC2	84	103	105	-19
56	CCc1ccc(N2Cc3ccncc3C2=O)cc1	2	102	106	-20
57	Cc1cc(C)c(C#N)c(N2C3CCC2CC(O)(c2ccc(F)cc2)C3)n1 (configuration not stated)	.	106	109	8
58	COc1ccc(NC(=O)c2cc(S(=O)(=O)N3CCCC3)ccc2F)cc1	-22	100	102	-8
59	CCCCn1c2ccccc2n2cc(C(C)(C)C)nc12	.	106	108	-35
60	COCCNC(=O)C1c2ccccc2C(=O)N(CCOC)C1c1ccc(F)cc1 (configuration not stated)	-1	100	104	-73
61	COc1cc(OC)cc(C(=O)N2c3ccc(F)cc3CCC2C)c1 (configuration not stated)	-2	102	102	-1
62	O=C(NCCOc1ccccc1Cc1ccccc1)c1ccc2c3c(cccc13)CC2	.	107	102	-4
63	N#C/C(=C\c1cc(C(F)(F)F)cc(C(F)(F)F)c1)S(=O)(=O)c1ccccc1	-13	100	109	0
64	Cc1ccc(NC2=NC(C)CS2)c(C)c1 (configuration not stated)	-9	103	109	-5
65	CNC(=O)CN1C(=O)c2cccc3cccc1c23	23	101	103	-41
66	Cc1ccc(-n2c(CCC(=O)O)nc3ccccc3c2=O)cc1	0	104	113	-10
67	O=C(C1CC(=O)N(C2CCCCC2)C1)N1CCCc2ccccc21 (configuration not stated)	-19	103	105	-32
68	COc1ccc(S(=O)(=O)NC2CC2)cc1C(=O)N1CCOCC1	-14	103	101	-24
69	O=C(CSc1nnnn1-c1ccccc1)N1N=CCC1c1ccccc1 (configuration not stated)	-1	99	101	0
70	O=C(Cc1ccccc1)N1CCCCCC1	-7	101	103	-39
71	CC(C)(C)c1ccc(C(=O)Nc2ccc(NC(=O)c3ccc(Br)o3)cc2)cc1	14	100	101	14
72	O=C(O)c1cccc(-c2ccc(/C=c3/sc4nc5ccccc5n4c3=O)o2)c1	14	68	192	-21
73	CC1CCCCN1C(=O)CSc1nc(-c2ccc(F)cc2)cc(C(F)(F)F)n1 (configuration not stated)	46	105	102	-9
74	CN(CC(=O)Nc1ccc2c(c1)CCC2)C1CCS(=O)(=O)C1 (configuration not stated)	-2	100	102	0
75	O=C(C1CC(c2ccccc2O)=NO1)N1CCCC1 (configuration not stated)	0	103	103	-21

# Of the compounds above, 5 have a CF3 group.
nr	smiles	Mtb MbtI inh	Polio RdRp inh	Polio RdRp inh intensity	Mtb MenB inh
27	Cc1cc2c([nH]c(=O)c3c(=O)[nH]c(C(F)(F)F)nc32)s1	75	103	122	3
50	CC(C)CC(C(=O)Nc1cc(C(F)(F)F)ccc1N1CCOCC1)N1C(=O)C2CC=CCC2C1=O (configuration not stated)	5	99	94	8
55	FC(F)(F)c1nc(NCc2ccccc2)nc2c1CCCCC2	84	103	105	-19
63	N#C/C(=C\c1cc(C(F)(F)F)cc(C(F)(F)F)c1)S(=O)(=O)c1ccccc1	-13	100	109	0
73	CC1CCCCN1C(=O)CSc1nc(-c2ccc(F)cc2)cc(C(F)(F)F)n1 (configuration not stated)	46	105	102	-9

# (cont.)
nr	smiles	Mtb MbtI inh	Polio RdRp inh	Polio RdRp inh intensity	Mtb MenB inh
76	CCS(=O)(=O)N1CCC(C(=O)NCc2ccc(F)cc2Cl)CC1	4	102	98	0
77	COc1cccc(C(C(F)(F)F)P(C)(=O)O)c1 (configuration not stated)	-4	102	95	10
78	OC1CCC(NCC(O)COCc2ccccc2Cl)CC1 (configuration not stated)	-16	103	108	-11
79	CS(=O)(=O)N1CCc2cc(C(=O)Cn3cc(C(F)(F)F)ccc3=O)ccc21	-8	109	109	-24
80	COc1ccc(/C=N/Nc2nc(-c3ccc(OC)cc3)c(C)s2)cc1	6	104	101	-36
81	O=C1ON=C(c2ccccc2)/C1=C/c1ccco1	73	101	100	-39
82	COc1ccc(-n2c(SCC(N)=O)nc3c(c2=O)SCC3)cc1	2	103	99	0
83	Cc1ccc(CSC2=NS(=O)(=O)c3ccccc32)cc1	-3	102	106	8
84	Nc1nnc(SCc2cccc(S(=O)(=O)N3CCOCC3)c2)s1	-1	101	98	12
85	Cc1cccc(N2C(=O)NC(=O)/C(=C\c3cn(CC(=O)NCc4ccco4)c4ccccc34)C2=O)c1	-19	72	188	-37
86	CCOC(=O)N1CCN(S(=O)(=O)c2cc3[nH]c4c(c3cc2CC)C(=O)CC(C)(C)C4)CC1	-22	100	102	-16
87	CCN(C1=NC2CS(=O)(=O)CC2S1)c1ccc(OC)cc1 (configuration not stated)	1	103	99	-12
88	CCCn1c(=O)ccn(-c2ccccc2C)c1=O	-6	103	108	-4
89	N#Cc1nc(-c2ccccc2F)oc1N1CCc2ccccc2C1	119	101	106	.
90	Cc1cc(N)n(-c2ccc(F)cc2)n1	-8	101	103	.
91	Cc1cc(=O)[nH]c2nnc(SCC(=O)N3CC(C)OC(C)C3)n12 (configuration not stated)	0	100	101	2
92	N#CC(C#N)=C1C=C(c2cccs2)Oc2ccccc21	0	81	128	-15
93	COc1ccccc1N1CCN(C(CNS(=O)(=O)c2c(C)cc(C)cc2C)c2cccnc2)CC1 (configuration not stated)	-1	102	103	-13
94	CCCCNCc1cccn1-c1sc2c(c1C#N)CCCC2	-12	102	103	-6
95	Cc1ccc2cc(CN(CC3CCCO3)C(=O)C(F)(F)F)c3nnnn3c2c1C (configuration not stated)	5	104	104	-19
96	CN1C(N)=NC(=O)C1(CO)CO	-11	102	99	-10
97	O=S(=O)(CCc1nc2ccccc2s1)c1ccc(Cl)cc1	-18	104	102	-18
98	CCN(C(=O)CSc1nc2ccccc2o1)C1=CCCC1	-8	101	107	-38
99	Cc1noc(C)c1COc1cc2ccccc2cc1C(=O)NCc1ccccn1	118	105	109	-30
100	CCN(CC)Cn1c(=S)oc2ccc(Cl)cc21	64*	104	89	-41
101	CC(O)CNCCOc1ccc2ccccc2c1Cl (configuration not stated)	-10	104	102	-24
102	O=C(COc1ccc(Br)cc1)OCC(=O)c1ccccc1	.	107	109	-2
103	O=C1/C(=C/c2cccs2)CN(Cc2ccccc2)C/C1=C\c1cccs1	14	104	109	-39
104	Clc1ccccc1NC1=NCCCS1	1	111	111	-2
105	C(=C\c1cccs1)/C1=NN(c2ccccc2)C(c2cccs2)C1 (configuration not stated)	-81	97	144	-131
106	Cc1ccc(N(CC(=O)N2CCOCC2)S(=O)(=O)c2ccccc2)cc1	-15	99	105	-7
107	Cc1ccccc1C1C(C#N)=C(N)SC(N)=C1C#N	.	46	260	-23
108	O=C(Cn1[nH]c(=O)c2ccccc2c1=O)NCCN1C(=O)S/C(=C\c2ccccc2)C1=O	24	102	107	-25
109	S=C(NCCNc1ccccn1)NC1CC1	22	103	103	6
110	CCOC(=O)C(C#N)=C1C=CN(c2ccccc2)C=C1	-2	99	102	0

# Profiles, quoted from the list. Screens in order: Mtb MbtI inh	Polio RdRp inh	Polio RdRp inh intensity	Mtb MenB inh
# O=C(COc1ccc(Br)cc1)OCC(=O)c1ccccc1 as listed: .	107	109	-2
# Cc1ccccc1C1C(C#N)=C(N)SC(N)=C1C#N as listed: .	46	260	-23
